# HPGD block: HPGD (human) dehydrogenase inhibition; P15428; purified HPGD, NADH fluorescence kinetic, PGE2 substrate; Potency, µM, for inactives: at the top dose activity change, negative = inhibition, actives largely listed as inhibitors; 150,000 compounds, 4.3% hits; AID 894; active = well fitted inhibition curve with a large enough effect (not every such curve was filed as active); inconclusive = small, poorly fitted or top-dose-only effect, or another doubt; inactive = no such curve, though single readings can be large or run the other way;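 note: top concentration of the series not given in the record; plate controls included wells without enzyme; inactives centre near -10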
# Target sequence (P15428 whole entry, looked up): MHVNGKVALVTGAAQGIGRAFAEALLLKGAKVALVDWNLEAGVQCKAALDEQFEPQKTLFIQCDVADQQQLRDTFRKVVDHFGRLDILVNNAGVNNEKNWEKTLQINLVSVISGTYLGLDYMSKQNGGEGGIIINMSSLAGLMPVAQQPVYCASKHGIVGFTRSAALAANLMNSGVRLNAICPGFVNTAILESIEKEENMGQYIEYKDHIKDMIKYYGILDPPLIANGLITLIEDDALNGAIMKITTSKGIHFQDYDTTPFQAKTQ
#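 NADH formation kinetics: reaction with 30 uM PGE2 and 1 mM NAD+ (final), 20 nM enzyme, Tris-HCl pH 8 with Tween 20, after 15 min compound preincubation at room temperature. Fluorescence change, last versus first of five reads.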
# The depositor's hits bear a star; ? = inconclusive. % is set by controls: 0 for no effect and ±100 for the full control effect; potency is the fitted concentration of half-maximal effect. An excerpt. The share of hits here may be higher or lower than overall.
HPGD block | Molecule
-10.0% | COc1cccc(C2/C(=C(\O)c3c(C)nc4c(C)cccn34)C(=O)C(=O)N2CCCN(C)C)c1 (centres undefined)
-1.7% | Cc1nn(C)c(Oc2ccccc2)c1CCNS(=O)(=O)c1ccc(Cl)cc1
? | CNc1nc(Sc2cccc(C(F)(F)F)c2)cc(C(F)(F)F)n1
-6.1% | COc1cc2c3nnc(-c4ccc(F)cc4)c-3cn(Cc3cccc(C)c3)c2cc1OC
-15.1% | O=C(Oc1cccc2ccccc12)c1cc(Cl)nc2ccccc12
-21.1% | COc1cccc(CSc2nc3sc(C)c(C)c3c(=O)n2Cc2ccco2)c1
-0.7% | CCOC(=O)c1c(NC(=O)COC(=O)c2cc(OC)c(OC)cc2[N+](=O)[O-])sc(C)c1C
-5.5% | C[N+](C)(N)Cc1csc(-c2ccc(Cl)cc2)n1
-6.0% | COc1ccc(N2CCN(C(=O)CC(NC(N)=O)c3cccc(Oc4ccccc4)c3)CC2)cc1 (centres undefined)
-12.6% | CCOc1ccc(S(=O)(=O)Nc2cc(Cl)ccc2O)cc1
-12.8% | CSc1nc(-c2ccco2)nn1C(=O)Cc1ccccc1
-28.0% | CC(=O)Nc1nc(C)c(-c2csc(Nc3ccc(O)cc3)n2)s1
? | C=CCn1c(Cc2nc3ccc(Cl)cc3[nH]2)n[nH]c1=S
-8.2% | COc1ccc(N2C(=O)C3CCCN3C2=O)cc1 (centres undefined)
-15.8% | O=C(CCNc1cc(Cl)cc(Cl)c1)c1ccco1
-5.7% | CCn1cc(C(=O)C(F)(F)F)c2ccccc21
-17.5% | FC(F)(F)c1cc(-c2ccco2)nc(N2CCN(c3ccccc3)CC2)n1
-20.3% | COc1ccccc1-n1cnc2cc(C(=O)NCCCN3CCOCC3)ccc21
2.4% | CCCN1CNC(=S)N(Cc2ccccc2)C1
-28.5% | Cc1ccc2c(CC(=O)O)coc2c1

# An excerpt from above in order of molecular weight, descending.
HPGD block | Molecule
-1.7% | Cc1nn(C)c(Oc2ccccc2)c1CCNS(=O)(=O)c1ccc(Cl)cc1
? | CNc1nc(Sc2cccc(C(F)(F)F)c2)cc(C(F)(F)F)n1
? | C=CCn1c(Cc2nc3ccc(Cl)cc3[nH]2)n[nH]c1=S
-12.8% | CSc1nc(-c2ccco2)nn1C(=O)Cc1ccccc1
-15.8% | O=C(CCNc1cc(Cl)cc(Cl)c1)c1ccco1
-8.2% | COc1ccc(N2C(=O)C3CCCN3C2=O)cc1 (centres undefined)

# Continuation.
HPGD block | Molecule
-5.9% | CCC1(C)N(O)C(C)(C)C(c2ccc(OC)cc2)=[N+]1[O-] (centres undefined)
-13.8% | Cc1ccccc1-c1n[nH]c(=S)o1
-5.0% | CCOc1ccc(NS(=O)(=O)CC23CCC(CC2=O)C3(C)C)cc1 (centres undefined)
? | CCOC(=O)CC(=O)CSc1nnc2sc3ccccc3n12
-8.7% | CC(C)c1ccc2c(c1)C(c1ccc(N3CCOCC3)cc1)=NNC(c1cccs1)=N2
2.4% | COc1ccccc1N1CCN(C(=O)c2cc(-c3ccco3)on2)CC1
-10.3% | Cc1nc(/N=C\N(C)C)sc1C(=O)Nc1ccccc1
? | Cc1ccc(-c2cc(C(=O)N/N=C/c3c(C)nn(-c4ccccc4)c3C)[nH]n2)cc1
-4.5% | Cc1ccc(C(C(=O)NC2CCCCC2)N(CCC(C)C)C(=O)CNC(=O)c2ccco2)o1 (centres undefined)
-20.4% | CSc1ncccc1-c1nc2ccccc2[nH]1
-25.1% | Cc1cccc2cc(CN(Cc3cccs3)C(=S)NCC3CCCO3)c(=O)[nH]c12 (centres undefined)
-17.0% | O=C(Oc1cccnc1)c1cc(S(=O)(=O)N2CCCCC2)ccc1Cl
-4.7% | COc1ccc(CN2CCN(C(=O)c3cccnc3)CC2)cc1Br
? | COC(=O)C1=NN(c2cccc(C)c2)C2C(=O)N(c3ccccc3OC)C(=O)C12 (centres undefined)
-20.3% | CCN(CC)S(=O)(=O)c1ccc2oc(C(=O)NC(C)C)c(C)c2c1
0.3% | COc1ccc(S(=O)(=O)N2CCCCCC2)cc1NC(=O)Cc1cc(OC)c(OC)c(OC)c1
-17.6% | Cc1ccc(S(=O)(=O)N2CCOCC2)cc1C(=O)NC(=S)N(Cc1ccccc1)C(C)C
-7.9% | Cn1nc(CC(=O)NCCN2C(=O)CSC2=O)c2ccccc2c1=O
-0.6% | O=S1(=O)CCC(NS(=O)(=O)/C=C/c2ccccc2)C1 (centres undefined)
-8.4% | Cc1nc(N2CCOCC2)nc(N2CCN(c3ccccc3)CC2)c1[N+](=O)[O-]

# Following part.
HPGD block | Molecule
-9.2% | Cc1oc(C(=O)O)cc1COc1cccc2cccnc12
-1.2% | Cc1ccc(-n2c(SCC(=O)Nc3cccc(C)c3)nc3c(oc4ccccc43)c2=O)cc1
-16.6% | O=C(COc1cccc2c1CCN(Cc1ccc(Br)cc1)C2=O)NCc1ccco1
-9.0% | Cc1ccc2oc(=O)c3cnn(CC(=O)NCCN(C)C)c3c2c1
-29.5% | O=Nc1c(O)n(Cc2cccc(Cl)c2)c2ccccc12
? | Cc1ccc(-c2nn(-c3ccccc3)c3[nH]c(=O)c(CNCCN(C)C)cc23)cc1
-16.6% | Cc1ccccc1C(=O)Nc1ccc(C(=O)NNC(=O)CCCOc2ccc(Cl)cc2Cl)cc1
-7.1% | CS(=O)(=O)N1CCC2(CC1)CN(C(=O)Nc1ccccc1)C2
-6.9% | CCC(=O)N1CCc2cc(S(=O)(=O)CCC(=O)Nc3ccc(CC)cc3)ccc21
-8.1% | CCCCOc1cccc(C2(C(=O)O)CCCC2)c1
-18.0% | Cc1ccc(CNC(=O)Cn2c(=O)c3sccc3n(Cc3ccc([N+](=O)[O-])cc3)c2=O)cc1
-2.0% | O=[N+]([O-])c1cc(C(F)(F)F)ccc1Sc1ccccn1
? | Cn1c(C(=O)NCCN2CCc3ccccc3C2)cc2c(=O)n(C)c3ccccc3c21
-6.9% | COC(=O)CSc1nc(N)nc(C)c1Br
? | Cc1cc2n(n1)C(c1cn(-c3ccccc3)nc1C)Nc1ccccc1-2 (centres undefined)
-5.6% | O=C(Nc1ccccc1-c1nnn(CC(=O)N2CCc3ccccc3C2)n1)C1CCC1
-20.6% | NC(=O)CNC(=O)[C@@H]1CC2(CC(c3ccc(Cl)cc3)=NO2)CN1C(=O)c1ccc(Br)cc1 (some centres undefined)
? | O=C(C1CCCN(Cc2cccc(F)c2)C1)N1CCCCC1 (centres undefined)
4.0% | CNC(=S)NNC(=O)c1sccc1OCc1ccc(Cl)cc1Cl
-8.4% | Cc1ccccc1-c1nc(CS(=O)(=O)CC(=O)NCCCN2CCCC2=O)c(C)o1

# Next part:
HPGD block | Molecule
-3.5% | Cc1c(-c2ccccc2)[n+](=O)c2c(n1[O-])CCCCC2
-11.3% | Cc1cccc(-n2c(=S)[nH]c3c(oc4ccccc43)c2=O)c1
-5.2% | Cc1cc(C(=O)N/N=C/c2cccnc2)cs1
-23.6% | Cc1ccc(NCc2nnc(SCC(N)=O)n2CCc2ccccc2)cc1
-7.9% | CCOC(=O)N1CCC(c2nc(C)sc2C(=O)O)CC1
-6.4% | COc1ccc(S(=O)(=O)N2CCOCC2)cc1C(=O)Nc1ccon1
-6.8% | COCC(=O)n1nc(-c2ccc(Cl)cc2)nc1NCc1ccc(F)cc1
-5.5% | CCN1C(=O)/C(=C/N2CC(C)CC(C)C2)SC1=S (centres undefined)
-9.6% | O=C(Nc1ccc2c(c1)OCCO2)NC12CC3CC(CC(C3)C1)C2
-13.3% | Cc1nnc(N2CCOCC2)c2nn(-c3ccccc3)c(C)c12
? | COc1cccc2c3c(c(C)nc12)CC(C)O3 (centres undefined)
-22.8% | CC1Oc2ccccc2C=C1/C=C1/SC(N2CCOCC2)=NC1=O (centres undefined)
-5.1% | O=C(c1cccc(Cl)c1)N1CCN(C2CCCCCC2)CC1
-11.4% | COc1ccc(-c2noc(N(C)CC(=O)Nc3cccc(C(F)(F)F)c3)n2)cc1
-1.4% | Cc1sc(-c2ccccn2)nc1OC(=O)c1ccc(Cl)c(Cl)c1
-7.1% | CCOC(=O)C1=NNC(C(=O)c2ccc(Cl)cc2)C1c1ccccc1 (centres undefined)
-5.1% | COc1ccc(-n2c(SCC(=O)N3CCc4ccccc43)nnc2-c2c[nH]c3ccccc23)cc1
-9.9% | O=C(O)Cc1cc2ccccc2nc1C(=O)O
-16.0% | COc1ccc(/C=N/NC(=O)C2CCN(c3ncc(C(F)(F)F)cc3Cl)CC2)cc1
-8.8% | CCn1nnnc1SCC(=O)Nc1cc(OC)cc(OC)c1

# Arranged by the number under HPGD block (smallest number first): some entries from above
HPGD block | Molecule
-28.5% | Cc1ccc2c(CC(=O)O)coc2c1
-17.6% | Cc1ccc(S(=O)(=O)N2CCOCC2)cc1C(=O)NC(=S)N(Cc1ccccc1)C(C)C
-17.0% | O=C(Oc1cccnc1)c1cc(S(=O)(=O)N2CCCCC2)ccc1Cl
-9.9% | O=C(O)Cc1cc2ccccc2nc1C(=O)O
-8.4% | Cc1nc(N2CCOCC2)nc(N2CCN(c3ccccc3)CC2)c1[N+](=O)[O-]
0.3% | COc1ccc(S(=O)(=O)N2CCCCCC2)cc1NC(=O)Cc1cc(OC)c(OC)c(OC)c1

# Next part:
HPGD block | Molecule
3.3% | COc1cc(OC)cc(C(=O)N2CCN(C3CCN(Cc4ccccc4)CC3)CC2)c1
-11.5% | COCCn1c(SCc2nc3sc(C(=O)OC)c(C)c3c(=O)[nH]2)nc2ccccc21
-21.3% | Cc1ccc(N2CN=c3s/c(=C\c4cccnc4)c(=O)n3C2)cc1
-5.8% | Cc1ccc2c(c1)NC(=O)C(CC(=O)NC1CCCCC1C)O2 (centres undefined)
-2.3% | Cc1ccc2c(c1)N(CCCC(=O)NCCCN1CCCC1=O)C(=O)CO2
-7.1% | Cc1nc2ccccc2n1CC(O)COCC1CC=CCC1 (centres undefined)
-2.4% | CCc1ccc(C(=O)COC(=O)c2ccc(-c3nnc(-c4ccccc4)o3)cc2)cc1
2.5% | CCCOc1ccc(C2C(C(=O)c3ccco3)=C(O)C(=O)N2CCN2CCOCC2)cc1OC (centres undefined)
-7.9% | CSCCC(NC(=O)c1ccc(Cl)cc1)C(=O)OCC(=O)c1ccc[nH]1 (centres undefined)
-0.5% | CC1(CN2CCC(n3c(=O)[nH]c4ccccc43)CC2)OCc2ccccc2-n2cccc21 (centres undefined)
-19.2% | O=C(COC(=O)c1c(Cl)ccc(Cl)c1Cl)NC(=O)NCc1ccccc1
-19.3% | CCc1ccc2c(c1)c(N=NC1=NC(=O)CS1)c(O)n2CC
-3.4% | Cn1c(Cl)nc2ccccc21
? | CSc1ccc(/C=N/NC(=O)c2ccc(O)cc2)cc1
-24.1% | CN1C(=O)c2cccc(NC(=O)Cc3ccccc3)c2C1=O
-7.0% | Cc1nc(Oc2ccccc2)c2oc3ccccc3c2n1
3.7% | CCc1c(C)nc2ncnn2c1Nc1ccc(C)c(C)c1
-13.5% | Cc1nnc(NC(=O)c2sc3nc(-c4cccs4)cc(C(F)(F)F)c3c2N)s1
-5.7% | CCCCN(C(=O)Cn1nnc2ccccc21)C(C(=O)NCCOC)c1cccs1 (centres undefined)
-11.6% | O=c1cc(N2CCC3(CC2)OCCO3)[nH]c(=O)n1C1CCCCC1

# Following part
HPGD block | Molecule
? | Cc1ccc(C2CC2c2n[nH]c(=S)n2-c2ccc(Cl)cc2)cc1 (centres undefined)
-8.9% | O=C(CCC(=O)N1CCN(S(=O)(=O)c2ccc(Cl)cc2)CC1)Nc1ccc2ccccc2c1
2.2% | CCOCCCNC(=O)C(NC(=O)c1cnccn1)c1ccc(C)cc1 (centres undefined)
-16.4% | CCOC(=O)/C(=N\Nc1ccc(OC)cc1)c1csc(Nc2ccccc2)n1
-9.4% | O=C(Nc1cccc(C(F)(F)F)c1)c1cccnc1N1CCOCC1
-6.8% | CCC(CC)C(=O)c1c[nH]c(C(=O)NCCc2ccccn2)c1
-13.6% | CCn1c(N2CCN(C(=O)C34CC5CC(CC(C5)C3)C4)CC2)nc2ccccc21
-18.0% | Cc1ccc(Cn2cc(SCC(=O)Nc3nccs3)c3ccccc32)cc1
-18.5% | Cc1ccc(C(=O)NC(C)c2ccc(F)cc2)cc1 (centres undefined)
-9.1% | CCN(CCCn1c(=S)[nH]c2ncccc2c1=O)c1ccccc1
? | Cc1ccc(-c2csc(N3CCC(NS(=O)(=O)c4ccc5c(c4)OCCO5)CC3)n2)cc1
0.0% | O=C(CN1C(=O)NC2(CCCCCC2)C1=O)N1CCC(Cc2ccccc2)CC1
-19.9% | CC1CCN(c2nc(Cl)nc(Nc3ccc([N+](=O)[O-])cc3)n2)CC1
-27.3% | O=C(Nc1ccc2nsnc2c1)NC1CCCCC1
-6.0% | Cc1ccc(NC(=O)CNC(=O)c2ccccc2F)cc1Cl
-20.1% | O=C1C2CCCN2C(c2ccccc2)N1c1nccs1 (centres undefined)
-4.5% | CC(C)CCNC(=O)C1CC(=O)N(C2CCCC2)C1 (centres undefined)
-15.7% | O=C(Oc1ccc2[nH]cc(CCN3C(=O)c4ccccc4C3=O)c2c1)c1ccco1
-5.0% | OCCNCCOc1ccccc1F
-1.3% | N#Cc1ccsc1NC(=O)CN1CCN(c2ccccc2O)CC1

# Further records:
HPGD block | Molecule
-7.9% | CCOc1nc(NCCN2CCOCC2)nc(Nc2ccc(C)cc2)n1
-13.7% | CCCCN(Cc1cc2ccccc2[nH]c1=O)S(C)(=O)=O
-18.3% | c1cncc(-c2nc3ccccc3[nH]2)c1
-8.4% | O=C(c1ccc(Cl)cc1)N1C2C=CC(C2)C1(C(F)(F)F)C(F)(F)F (centres undefined)
-24.7% | CCOC(=O)C1CCCN(C(=O)c2ccc3c(c2)NC(=O)C(N2CCOCC2)S3)C1 (centres undefined)
0.6% | CCCCCCOC(=O)CCc1c(C)nc(N)[nH]c1=O
-10.4% | CCOC(=O)CNC(=O)CSc1nc2cccnc2n1Cc1ccccc1

# Source: PubChem BioAssay
